Source: PubChem BioAssay (National Center for Advancing Translational Sciences (NCATS))
hNpr1 antagonist = antagonists of human natriuretic peptide receptor Npr1 | P16066 | Potency, µM (top dose mostly 46.3 µM), for inactives: top-dose activity change, negative = inhibition, hits mostly inhibitors | 1.6% of 76,000 active | HEK293 hNpr1 GloSensor cGMP, ANP-stimulated luminescence; active = well fitted inhibition curve with a large enough effect; inconclusive = small, poorly fitted or top-dose-only effect; inactive = no such curve, though single readings can be large or run the other way;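 further: nearly all actives have a fitted effect of over 60% in size; nearly all hits also lower the signal before the agonist is added; a reference antagonist and vehicle were the controls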
Target sequence (P16066 whole entry, looked up): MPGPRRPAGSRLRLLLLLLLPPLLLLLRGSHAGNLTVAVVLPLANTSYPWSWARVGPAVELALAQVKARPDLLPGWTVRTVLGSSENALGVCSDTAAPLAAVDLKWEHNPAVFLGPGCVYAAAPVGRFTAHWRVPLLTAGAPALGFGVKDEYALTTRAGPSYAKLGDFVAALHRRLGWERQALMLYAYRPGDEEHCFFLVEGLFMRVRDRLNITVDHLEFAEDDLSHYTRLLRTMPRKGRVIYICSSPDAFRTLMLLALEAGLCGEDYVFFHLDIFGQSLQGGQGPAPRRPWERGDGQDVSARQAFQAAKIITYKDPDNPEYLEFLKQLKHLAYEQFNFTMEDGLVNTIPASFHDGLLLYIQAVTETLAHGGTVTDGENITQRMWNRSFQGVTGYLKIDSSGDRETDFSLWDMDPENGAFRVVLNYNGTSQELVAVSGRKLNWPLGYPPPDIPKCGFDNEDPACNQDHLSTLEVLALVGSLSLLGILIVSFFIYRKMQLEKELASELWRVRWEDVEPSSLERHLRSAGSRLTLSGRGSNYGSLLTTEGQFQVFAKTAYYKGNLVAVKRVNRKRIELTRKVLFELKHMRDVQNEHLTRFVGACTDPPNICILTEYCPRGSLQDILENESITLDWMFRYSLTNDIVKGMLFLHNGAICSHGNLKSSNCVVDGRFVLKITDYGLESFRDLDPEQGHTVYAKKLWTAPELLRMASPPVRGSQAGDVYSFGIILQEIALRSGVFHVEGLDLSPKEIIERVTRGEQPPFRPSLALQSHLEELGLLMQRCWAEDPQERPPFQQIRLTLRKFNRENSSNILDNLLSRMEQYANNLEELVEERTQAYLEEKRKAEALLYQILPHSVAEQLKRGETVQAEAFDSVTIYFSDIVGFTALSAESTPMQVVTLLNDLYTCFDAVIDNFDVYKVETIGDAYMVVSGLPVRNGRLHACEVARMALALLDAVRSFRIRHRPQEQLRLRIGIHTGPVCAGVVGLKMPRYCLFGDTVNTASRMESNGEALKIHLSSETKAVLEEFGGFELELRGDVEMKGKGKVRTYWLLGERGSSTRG
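Compound pre-incubated 30 min at room temperature on GloSensor-loaded HEK293 cells stably carrying hNpr1 and the pGS-40F cGMP biosensor. Stimulation uses hNppA at 0.1 nM final; luminescence is taken at baseline and 20 min post-agonist.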
* = called active by the depositor; ? = inconclusive; [ ] = remark or other dose. On the % scale 0 is the no-effect control and ±100 the full control effect; potency means the concentration at half of the fitted maximal effect. Only part of the results is shown; count on the stated rates, not on these rows.

Start of the listing, in advance, two compounds:
hNpr1 antagonist | Structure
4% | CC(NC(=O)C1CCN(C(=O)c2ncn3c2COC(c2ccc(Cl)cc2)C3)CC1)c1ccccc1 (configuration not stated)
0% | N#Cc1cccc(C(=O)N2C[C@@H](Oc3ccccc3)C[C@H]2C(=O)N2CCCC2)c1

Main list, from the start:
hNpr1 antagonist | Structure
4% | CC(NC(=O)C1CCN(C(=O)c2ncn3c2COC(c2ccc(Cl)cc2)C3)CC1)c1ccccc1 (configuration not stated)
0% | N#Cc1cccc(C(=O)N2C[C@@H](Oc3ccccc3)C[C@H]2C(=O)N2CCCC2)c1
7% | COc1cccc(S(=O)(=O)N2CC(n3cc(C(=O)NCc4ccccc4)nn3)C2)c1
-3% | Cc1ccnc(NC(=O)Cn2nc3c(cc2=O)CCCCC3)c1
-5% | COC(=O)N1CCCCC1C(=O)N1CCC2(CC1)c1nc[nH]c1CCN2C (configuration not stated)
8% | CC(=O)N1CCC([C@@H]2CN(Cc3cc(F)c(F)c(F)c3)C[C@H]2CO)CC1
5% | CCC(=O)N(C1CCOCC1)C1CCN(S(=O)(=O)c2ccc(OC)cc2)CC1
5% | Cc1ccccc1OCC(=O)N1CCc2nc3cc[nH]n3c(=O)c2C1
-3% | NCC(=O)N1CCCC(N2CCN(c3cccc(C(F)(F)F)c3)CC2)C1 (configuration not stated)
6% | Cc1noc(C)c1S(=O)(=O)N1CCCN(c2nc3ncccc3o2)CC1

(more compounds)
hNpr1 antagonist | Structure
-2% | COC1CCN(c2ccc(C(=O)NCCCn3ccnc3C(C)C)cn2)CC1
-1% | CNC(=O)N1CCC(C2CCN(C(=O)c3cccn3C)C2)CC1 (configuration not stated)
3%[70.6 µM] | CC(C)NC(=O)c1onc(-c2ccc(Cl)cc2)c1[C@H](C)O
3%[70.6 µM] | CCCCCC(=O)N1CCC(O)(c2csc(CN3CCN(C)CC3)n2)CC1
8% | CCOC(=O)c1[nH]ncc1CN1CCCC(Cc2ccc(F)cc2F)(C(=O)OCC)C1 (configuration not stated)
-13% | CCOc1ccc(CC(=O)N2CCN(c3cc(-c4ccc(Cl)cc4)[nH]n3)CC2)cc1
0% | COc1ccc(C2Cn3nnc(-c4nc(-c5cccc(Br)c5)no4)c3CO2)cc1 (configuration not stated)
-12% | CC(C)(C)C1CCC2(CC1)NC(=O)N(CC(=O)NCc1ccco1)C2=O (configuration not stated)
2%[70.6 µM] | CN1CCN(c2ccc(-c3noc([C@@H]4CCCN4C4CCCCC4)n3)cn2)CC1
0% | CC(C)(O)CCc1cccc(C(=O)NCc2nc3ccccc3o2)c1

Three entries from above, arranged by their value in hNpr1 antagonist, ascending:
hNpr1 antagonist | Structure
-13% | CCOc1ccc(CC(=O)N2CCN(c3cc(-c4ccc(Cl)cc4)[nH]n3)CC2)cc1
-1% | CNC(=O)N1CCC(C2CCN(C(=O)c3cccn3C)C2)CC1 (configuration not stated)
0% | CC(C)(O)CCc1cccc(C(=O)NCc2nc3ccccc3o2)c1

Following part:
hNpr1 antagonist | Structure
3% | CCn1ccc(C(=O)N2CCn3c(nnc3[C@@H]3C[C@@H](O)CN3Cc3ccccc3)C2)n1
-3% | COc1ccccc1CN1CCC2(CC1)OC(=O)N(Cc1ccccc1F)C2(C)c1ccccc1 (configuration not stated)
14%[70.6 µM] | CC(C)NC(=O)[C@@H](C)C1CC[C@@]2(C)CC[C@H](NC(=O)c3ccncc3)[C@@H](C)[C@@H]2[C@H]1O (some centres not stated)
9% | CC(C)CC(=O)N1CCCC(c2nc(C3CCOCC3)no2)C1 (configuration not stated)
14% | Cc1ccc(-n2c(C3CCN(C(=O)c4n[nH]c5ccccc45)CC3)n[nH]c2=O)cc1
-22% | COc1ccc(C(=O)N2CCC(n3cc(-c4nc(C(C)C)no4)nn3)CC2)cc1
2% | Cc1cc(Cn2cc3c4c(cccc42)[C@H](CC(C)C)N[C@H](C(=O)N2CCN(C)CC2)C3)no1
-12% | COc1ccc(NC(=O)c2c(OC)cc(=O)n3c2CCCC3)c(OC)c1
-4% | N#Cc1cccc(NC(=O)N2CCc3nc4cc[nH]n4c(=O)c3C2)c1
2% | CCc1noc([C@@H]2CC(F)(F)CN2C(=O)COc2ccccc2)n1

Continuation.
hNpr1 antagonist | Structure
-8% | Cc1cc(C(=O)N2CC[C@H](NS(=O)(=O)c3cccs3)C[C@H]2C(=O)N[C@H](CC(C)C)C(N)=O)n(C)n1
1% | COc1ccc(N2CCN(C(=O)c3ccc4c(c3)N(C)C3CCCCCN3C4=O)CC2)cc1 (configuration not stated)
11% | CCOc1ccccc1CN1CCC2(CCN(C(C)=O)CC2)Oc2ccccc21
-2% | O=C(NC1CC1)C1CCN(C(=O)N2CC3CC(C2)[C@H]2CCCC(=O)N2C3)CC1 (some centres not stated)
-5% | COCc1cc(=O)n(CC(=O)Nc2cccc(SC)c2)c(N2CCOCC2)n1
2% | O=C1NCCCCCCN(C(=O)c2cc(CN3CCOCC3)on2)[C@H]2CCCC[C@@H]12
7% | COCCOCC(=O)NCC(=O)N1CCCCCNC(=O)CC1c1ccccc1 (configuration not stated)
? | O=C(COc1ccc(F)cc1)N1CCN(C(=O)c2nnn3c2COC(c2ccc(Cl)cc2)C3)CC1 (configuration not stated)
0%[70.6 µM] | CC(=O)Nc1ccc(CN2C[C@@H](F)[C@@H](OCc3nc4cc(C)c(C)cc4[nH]3)C2)cc1
3% | O=C1NCCCCCN(C(=O)c2ccco2)[C@H]2CCC[C@@H]12

(further entries)
hNpr1 antagonist | Structure
5% | COCCO[C@H]1C(=O)N(C2CCN(C(=O)NCc3ccccc3)CC2)[C@H]1c1ccncc1
0% | COc1cccc(CNC(=O)Cn2nc3n(c2=O)CCCC3)c1OC
-1% | COCCCNC(=O)N[C@@H]1CN(c2ncccn2)C[C@H]1CN(C)C
-22% | CCc1nc(NC(=O)C2CC(=O)N(c3n[nH]c4cc(Br)ccc34)C2)sc1C (configuration not stated)
-14% | COc1cccc(CC(=O)N2C[C@@H](Oc3cccnc3)C[C@H]2C(N)=O)c1
-2% | COc1ccc(C(=O)N[C@@H]2CCC[C@@H]2C(=O)NCC(C)C)cc1
2% | CC(=O)N1CCc2cc(S(=O)(=O)CCC(=O)N3CCCC(Cc4nncn4CC4CC4)C3)ccc21 (configuration not stated)
4% | O=C(CCc1cc(=O)[nH]o1)N[C@@H]1CCOC[C@H]1O
-17% | CCCn1cc(-c2ccncc2)cc1C(=O)N1CCN(c2ccccc2OC)CC1
-7% | CN(C)S(=O)(=O)N1CCC2(CC1)CC(=O)N(C/C=C/c1ccccc1)C2

(cont.)
hNpr1 antagonist | Structure
0% | CCN1c2cc(C(=O)NC3CCCCC3)ccc2C(=O)N2CCCCC21 (configuration not stated)
5% | CCCNC(=O)N1CCC(c2noc(-c3ccccn3)n2)C1 (configuration not stated)
-16% | O=C(CN1C(=O)CNC1=O)N1CCCC(Nc2ccc3c(c2)OCO3)C1 (configuration not stated)
2%[70.6 µM] | COc1ccccc1C(=O)N1CC(CNc2ccccc2)C2(C1)CN(c1ccccc1)C2 (configuration not stated)
-19%[70.6 µM] | CN1Cc2ccc(NCc3ccccc3)nc2C(C)(C(=O)NCc2cccs2)C1 (configuration not stated)
-1%[70.6 µM] | O=C1COC[C@H]([C@H](O)c2ccc(NC(=O)C3CCCC3)cc2)N1
1%[70.6 µM] | O=c1cc(N2CCOCC2)oc2c(NC3CCOCC3)nccc12
-12% | Cc1nc2ccc(CNC(=O)c3cccc(CCC(C)(C)O)c3)cc2[nH]1
-2%[70.6 µM] | O=C(O)C[C@@H]1CCN(C(=O)C2CC2)C[C@@H]1CCN1CCC(C(=O)O)CC1
2% | COc1ccc(-c2ccc3ncc(Nc4cc(F)cc(N5CCOCC5)c4)n3n2)cc1OC

Next section.
hNpr1 antagonist | Structure
-6% | COc1cccn(CC(=O)N(Cc2ccc(SC)cc2)C2CC2)c1=O
-6%[70.6 µM] | Cc1ccc2nc3n(c2c1)[C@@H](CNCc1cccnc1)COC3
0% | Cc1cnccc1CN(C)Cc1cc2n(n1)CCCNC2
20µM* | CC1(CCCCc2ccccc2)COc2ccc(C(=O)NC3CC3)cc2N1 (configuration not stated)
1% | COc1ccc(C(=O)N2CC[C@H](CO)[C@H](NC(=O)C3CC3)C2)cn1
-25%[70.6 µM] | COc1ncccc1-c1cnc2[nH]cc(CC(=O)Nc3cc(C)nn3C)c2c1
1% | CCOCCn1c(=O)[nH]c2cc(C(=O)NCc3nnc(C)o3)ccc21
22µM* | CC(C)(Oc1nn(Cc2cccc(Cl)c2)c2ccccc12)C(=O)NCCc1cnc[nH]1
-29% | CCCOc1ccccc1C(C)Nc1nc(-c2cccnc2)nc2c1CNC2 (configuration not stated)
-12%[70.6 µM] | COc1cccc(Nc2cnc3ccc(-c4ccc(OC)c(OC)c4)nn23)c1

Shown with each value named: 4 of the compounds above.
> COc1cccn(CC(=O)N(Cc2ccc(SC)cc2)C2CC2)c1=O
  hNpr1 antagonist: -6%

> Cc1ccc2nc3n(c2c1)[C@@H](CNCc1cccnc1)COC3
  hNpr1 antagonist: -6%[70.6 µM]

> Cc1cnccc1CN(C)Cc1cc2n(n1)CCCNC2
  hNpr1 antagonist: 0%

> CC1(CCCCc2ccccc2)COc2ccc(C(=O)NC3CC3)cc2N1 (configuration not stated)
  hNpr1 antagonist: 20µM*

(more compounds)
hNpr1 antagonist | Structure
7% | CS(=O)(=O)c1ccc(S(=O)(=O)N2CCC3(CCCNC3)C2)cc1 (configuration not stated)
-19% | CN(Cc1ccc2nccnc2c1)C(=O)c1cc(COc2ccc(F)cc2F)on1
-23% | CNc1ncncc1-c1nc(-c2ccccc2)no1
10µM* | CCOc1ccc(Nc2nc(-c3ccccc3)no2)cc1
-6% | COCCc1noc(C2Cc3ccccc3N2C(=O)Nc2ccc(C)c(C)c2)n1 (configuration not stated)
1% | Cn1nccc1C(=O)N1CCCN(C(=O)C2CC2)c2ccccc21
0% | O=C(c1ccccc1F)N1CCC2(CC1)CC(Cc1ccccc1)=NO2
-3% | O=C(NCc1sc2ccccc2c1Cl)[C@H]1CCC[C@H](O)C1
2% | CC(C)N1C[C@H](O)C[C@H]1c1nnc2n1CCN(C(=O)c1nn(C)c3ccccc13)C2
0% | CC(=O)N1CCC(N[C@H]2CC(C)(C)[C@@H]3C[C@@](C)(O)CC[C@]23CCC(=O)NCCc2c[nH]c3ccccc23)CC1

Next records
hNpr1 antagonist | Structure
2% | CN(CC(=O)N[C@H]1[C@H]2CCO[C@H]2[C@@H]1N(C)C)Cc1ccc(F)cc1
8%[70.6 µM] | NC(=O)c1cccc2[nH]c([C@H]3CCN(Cc4ccccn4)C3)nc12
-1% | CCOc1ccc(C(=O)Nc2ccc(-c3nnc4n3CCCC4)cc2)cc1
0% | CCN1c2cc(C(=O)Nc3cc(F)cc(F)c3)ccc2C(=O)N2CCCCCC21 (configuration not stated)
-12% | O=C(Cc1cccc(F)c1)N1C[C@@H](CO)[C@H](c2nc(C3CC3)no2)C1
-13%[70.6 µM] | C[C@H]1CCCN1C(=O)c1nnc(COc2ccccc2)n1-c1ccccc1
6% | Cc1cc(C)n(Cc2ccc(-c3nc(C)no3)cc2)n1
-6% | CNC(=O)c1noc(CN2CCCC(CCc3ccccc3C(F)(F)F)C2)n1 (configuration not stated)
3% | COCCN1CC(CO)C2(CCN(C(=O)CCn3cc(C)cn3)CC2)C1 (configuration not stated)
-5% | O=C(NCCc1ccccc1)c1cnc2c(c1)N(C(=O)Cc1cccc(C(F)(F)F)c1)CCC2

Next section
hNpr1 antagonist | Structure
3% | COCc1cc(N2CCN(Cc3ccccc3C#N)CC2)ncn1
-27% | Fc1ccc(-c2noc([C@@H]3Cc4nc[nH]c4CN3Cc3cc4ccccc4o3)n2)cc1Cl
-2% | COCc1nc(CCNC(=O)CCCc2cn(Cc3ccccc3Cl)c3ccccc23)no1
-3%[70.6 µM] | CN1CCC2(C1)CN(Cc1ccccc1)c1ccc(C(=O)NCCc3ccccn3)cc12 (configuration not stated)
-1% | COc1cc(-c2onc(C)c2C(=O)NCCCc2ccccc2)cc(OC)c1OC
5% | CN(C)C[C@@H]1CN(S(C)(=O)=O)C[C@H]1NC(=O)c1ccccc1C(F)(F)F
2% | Cc1ccc(C)c(S(=O)(=O)N2C[C@@H](F)C[C@H]2C(=O)N2CCCCC2)c1
-21% | O=c1[nH]c(C2CCCN(Cc3cccc(-c4ccsc4)c3)C2)nc2ccc(F)cc12 (configuration not stated)
2% | CN(Cc1cccnc1)C(=O)CCC[C@@H]1[C@H]2CCCN3CCC[C@@H](CN1C(=O)c1cccnc1)[C@@H]23
1% | Cn1nc(-c2nncn2CC2CC2)c2c1CCN(C(=O)Cc1c[nH]c3ccccc13)C2

Next records
hNpr1 antagonist | Structure
-4% | O=C1NCCOCCN(C(=O)c2ccccn2)[C@H]2CCC[C@@H]12
-21% | CN(Cc1cc(-c2ccccc2)on1)C(=O)c1cn(Cc2ccc(F)cc2)nn1
? | COc1ccc(-c2cc(N3CCN(C(=O)c4cccc(Br)c4)CC3)n[nH]2)cc1
0% | O=C(c1cc(-c2ccccc2)nc2ccccc12)N1CCOCC(CO)C1 (configuration not stated)
1% | CN1CCCCC(CC(=O)Nc2ccc(N3CCOCC3)cc2)C1=O (configuration not stated)
2% | CCOCC(=O)N1CCCN(C(=O)C2CC2)c2ccccc21
-5% | COc1ccccc1C(=O)N1CCC2(CNc3ccccc3[S+](=O)([O-])N2)C1 (configuration not stated)
1% | Cc1cn2nnc(C(=O)N3CCC(C(=O)Nc4cccc(Cl)c4)CC3)c2c(=O)[nH]1
-3%[70.6 µM] | COc1ccc(NC(=O)[C@@H]2C[C@@H](c3ccc(F)cc3)N(Cc3ccccc3)C2)cc1OC
-11% | Cn1cccc1C(=O)N1C[C@@H](Oc2ccccc2)C[C@@H]1C(=O)N1CCOCC1
-2% | CC(NC(=O)c1ccccc1F)C(=O)N1CCN(c2ccccn2)CC1 (configuration not stated)
-15% | CCOc1ccc(NC(=O)c2ccc(-c3nnc4ccc(NC(=O)C5CC5)cn34)cc2)cc1
